NPYLR7 ag = mosquito NPYLR7 agonism; actives 0.15% (n = 270,000); activation, % at 10 µM; HEK293T NPYLR7/Galpha15, GCaMP6s calcium fluorescence; AID 1259423; in the data active means activation above about 40%;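 further: 0% = vehicle and 100% = reference agonist at the receptor; some compounds past the cut are filed as inactive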
NPYLR7 ag max-min = further read-out of NPYLR7 ag, marked with its call; activation, %; measured here: Max-Min RFU normalised activation; some inactives read as strong as hits;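 span of the calcium signal over five minutes; 0% = vehicle and 100% = native peptide agonist; compound fluorescence can raise it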
Active calls of the source: *; & = joins results of further samples. A portion of the library (hit frequency here may not be typical).

For O=c1cccnn1CCNS(=O)(=O)c1ccc(Oc2ccccc2)cc1 the results were NPYLR7 ag 3 and NPYLR7 ag max-min 2.
Screening CCOC(=O)C1(Cc2cccc(Cl)c2)CCCN(C(=O)c2scnc2C)C1 (configuration not stated) returned NPYLR7 ag 8&-6 and NPYLR7 ag max-min 3&-10.
CCOC(=O)c1ccc2c(c1)nc(SCc1c(F)c(F)c(C(F)(F)F)c(F)c1F)n2CCc1ccc(OC)cc1 was read as NPYLR7 ag 1 and NPYLR7 ag max-min -3.
CN(C)c1ccc(C(=O)O)c2ccccc12 was read as NPYLR7 ag -3 and NPYLR7 ag max-min -5.
Screening CCOc1ccc(NC(=O)N(CC(=O)N2c3ccccc3-n3cccc3C2c2ccc(OC)cc2)C2CC2)cc1 (configuration not stated) returned NPYLR7 ag 1 and NPYLR7 ag max-min 15.
CC(NC(=O)C1=NN(c2ccccc2)C(=O)CC1)c1nc2ccccc2[nH]1 (configuration not stated) was read as NPYLR7 ag 5 and NPYLR7 ag max-min 1.
`Cc1cccc(C(=O)N2CCCC(CCC(=O)N3CCN(c4ccccn4)CC3)C2)n1` (configuration not stated) gave NPYLR7 ag 8 and NPYLR7 ag max-min 7.
COc1cccc(CC(=O)N2C[C@H](Oc3ccccn3)[C@H]3C[C@@H]2CC[C@H]3OC)c1 was read as NPYLR7 ag -5 and NPYLR7 ag max-min 2.
For Cc1nc(Cc2nc(-c3ccccc3)c(C)s2)cs1 the results were NPYLR7 ag -2 and NPYLR7 ag max-min -7.
CCC(C(=O)Nc1cc2c(C)cc(=O)oc2cc1C)n1cccn1 (configuration not stated) was read as NPYLR7 ag 3 and NPYLR7 ag max-min 0.
For COC(=O)c1ccc(NC(=O)NCCSc2nnnn2C)cc1 the results were NPYLR7 ag 2 and NPYLR7 ag max-min 0.
Screening CCCCn1ncc(O)c(Cl)c1=O returned NPYLR7 ag 1 and NPYLR7 ag max-min -1.
CCCn1c(=O)c2ccccc2n2c(SC(C)C(=O)OC)nnc12 (configuration not stated) was read as NPYLR7 ag 5 and NPYLR7 ag max-min 4.
For O=C(CCn1c(=O)oc2ccccc21)N1CCCc2ccccc21 the results were NPYLR7 ag 15 and NPYLR7 ag max-min 5.
Screening Cc1ccc(C)c2[nH]c(=O)c(CCNC(=O)c3ccc(C(C)(C)C)cc3)cc12 returned NPYLR7 ag 3 and NPYLR7 ag max-min 28.
Screening Cc1c(Cl)c(C(=O)NCC(C)Oc2cccnc2)nn1C (configuration not stated) returned NPYLR7 ag 4 and NPYLR7 ag max-min 1.
`Cc1nc2n(n1)C(c1ccccc1)C(O)C(c1ccccc1)=N2` (configuration not stated) gave NPYLR7 ag -3 and NPYLR7 ag max-min -8.
CCC(C)Sc1nc2c(c(=O)n1-c1ccccc1)SCC2 (configuration not stated) was read as NPYLR7 ag -3 and NPYLR7 ag max-min -4.
`O=C(Nc1ccccc1C(=O)NC1CCSc2ccccc21)c1ccco1` (configuration not stated) gave NPYLR7 ag 0 and NPYLR7 ag max-min -1.
For CC1=C(C(=O)OC(C)C)C(c2ccc(Br)s2)NC(=O)N1C (configuration not stated) the results were NPYLR7 ag -9 and NPYLR7 ag max-min -15.
Screening CCc1nn(-c2ccc(F)cc2)c(N2CCN(C(C)C)CC2)c1CN(CC(C)C)C(=O)CCl returned NPYLR7 ag 4 and NPYLR7 ag max-min 9.
For C=CCCC(=O)Nc1c(OC(=O)N(CC)CC)ccc2c1ccn2Cc1ccccc1F the results were NPYLR7 ag 6 and NPYLR7 ag max-min 4.
For Cc1ccc(O)cc1 the results were NPYLR7 ag -8 and NPYLR7 ag max-min -12.
For Cc1nnc(C)n1N1C(=O)c2cccc3cccc(c23)C1=O the results were NPYLR7 ag 2 and NPYLR7 ag max-min 3.
CCN1CCN(c2ccc(NC(=O)Cc3ccccc3)cc2C)CC1 was read as NPYLR7 ag 4 and NPYLR7 ag max-min 2.
N#Cc1cccc(S(=O)(=O)NC(=O)c2csc(-c3ccco3)n2)c1 was read as NPYLR7 ag 2 and NPYLR7 ag max-min 4.
`CCC(C)C(NC(=O)NC1CCCCC1)C(=O)Nc1nnc(-c2ccc(N(C)C)cc2)s1` (configuration not stated) gave NPYLR7 ag 35 and NPYLR7 ag max-min 31.
Screening COc1ccc(-c2c(C#N)c(N)n3c(nc4ccccc43)c2C#N)cc1 returned NPYLR7 ag 1 and NPYLR7 ag max-min -2.
Cc1nn2c(nc(NC3CCCCCC3)c3ccccc32)c1Cl was read as NPYLR7 ag 4 and NPYLR7 ag max-min 3.
`CCCS(=O)(=O)N1CCC(C(=O)NCCc2nc3ccccc3s2)CC1` gave NPYLR7 ag 4 and NPYLR7 ag max-min 1.
For NC(=O)COc1cccc(CN2CCn3cncc3C2)c1 the results were NPYLR7 ag 5 and NPYLR7 ag max-min 6.
`C(=C\c1ccccn1)/c1ccc(-n2ccnc2C2CCCCO2)cc1` (configuration not stated) gave NPYLR7 ag 1 and NPYLR7 ag max-min -1.
Screening O=C(Nc1ccc(-c2cscn2)cc1)C1CCCN(Cc2cccn2-c2ncccn2)C1 (configuration not stated) returned NPYLR7 ag 15&0 and NPYLR7 ag max-min 9&1.
CN(CC1CCN(CCc2ccc(F)cc2)CC1)C(=O)c1ccc(-n2ccnc2)cc1 was read as NPYLR7 ag 5 and NPYLR7 ag max-min 1.
For C#CCn1c(=NC(=O)c2ccccc2S(C)(=O)=O)sc2cc(S(C)(=O)=O)ccc21 the results were NPYLR7 ag 5 and NPYLR7 ag max-min 3.
Cc1cccc(Cl)c1OCCNC(=O)CSc1nnc(N)s1 was read as NPYLR7 ag 6 and NPYLR7 ag max-min 3.
COCCn1c(N)c(N(Cc2ccccc2)C(=O)CC2CC3CCC2C3)c(=O)[nH]c1=O (configuration not stated) was read as NPYLR7 ag 20 and NPYLR7 ag max-min 25.
`Cc1cccc(C)c1NC(=O)C(C)N` (configuration not stated) gave NPYLR7 ag -11&8&0 and NPYLR7 ag max-min -18&-7&-36.
Screening CS(=O)(=O)N1CCN(CCNC(=O)c2ccc3nc[nH]c3c2)CC1 returned NPYLR7 ag 1 and NPYLR7 ag max-min -2.
`CCOC(=O)Cc1c(C)nc2ncnn2c1N1CCN(C(=O)Nc2ccc(OC)cc2C)CC1` gave NPYLR7 ag 1 and NPYLR7 ag max-min -1.
For Cc1ccc(S(=O)(=O)N(C)C)cc1C(=O)N(C)CCOc1ccccc1F the results were NPYLR7 ag 2 and NPYLR7 ag max-min 0.
For CCN1CCN(C(=O)Nc2cccc([N+](=O)[O-])c2)CC1 the results were NPYLR7 ag 16 and NPYLR7 ag max-min 9.
CNc1cncc(-c2cccc(N(C)C)c2)n1 was read as NPYLR7 ag -1 and NPYLR7 ag max-min -1.
`CC(OC(=O)c1cc(-c2cccnc2)nc2onc(C(C)C)c12)C(=O)N(C)Cc1cccc(F)c1` (configuration not stated) gave NPYLR7 ag 2 and NPYLR7 ag max-min 8.
For CCCN(CCC)C(=O)c1cc(-c2cccc(F)c2)n2nc(C(C)(C)C)cc2n1 the results were NPYLR7 ag -3 and NPYLR7 ag max-min 3.
CC(C)(C)NC(=O)CN1CCN(CC(N)=S)CC1 was read as NPYLR7 ag 5 and NPYLR7 ag max-min 4.
For CCOC(=O)c1nn(-c2ccc(OC)cc2)c(=O)c2c(NC(=O)c3ccc4ccccc4c3)scc12 the results were NPYLR7 ag 2 and NPYLR7 ag max-min 0.
Screening O=C1/C(=C\c2sc(N3CCCCC3)nc2-c2cccs2)N=C2CCCN12 returned NPYLR7 ag 4 and NPYLR7 ag max-min 2.
O=C(C1=C(O)C(=O)N(c2ncccn2)C1c1ccccc1F)c1ccco1 (configuration not stated) was read as NPYLR7 ag 6 and NPYLR7 ag max-min 6.
For O=C(O)CC1COCCN1C(=O)CC12CC3CC(CC(C3)C1)C2 (configuration not stated) the results were NPYLR7 ag -3 and NPYLR7 ag max-min -11.
Screening Oc1ccc(C=Nn2cc(-c3ccccc3)[nH]c2=S)cc1 returned NPYLR7 ag 6 and NPYLR7 ag max-min 5.
C=CCOc1ccccc1-n1c(C)cn2c3c(=O)n(C)c(=O)n(C)c3nc12 was read as NPYLR7 ag 2 and NPYLR7 ag max-min 1.
Screening CC(C)(C)c1ccc(-c2csc(NC(=O)CNC(=O)CNC(=O)c3ccco3)n2)cc1 returned NPYLR7 ag 0 and NPYLR7 ag max-min 6.
For O=C(Nc1ccc(Cl)c(C(F)(F)F)c1)N1[C@H]2CCNC[C@@H]1CC2 the results were NPYLR7 ag 12 and NPYLR7 ag max-min 9.
`CC(=O)Nc1ccc(-c2cccc3ccnn23)cn1` gave NPYLR7 ag 6 and NPYLR7 ag max-min 2.
`CC(C)N(CC(N)=O)C(=O)/C=C/c1ccccc1Br` gave NPYLR7 ag -2 and NPYLR7 ag max-min 11.
`O=C(Nc1ccc(Oc2ccc(Cl)cc2)cc1)c1cc2cc([N+](=O)[O-])ccc2oc1=O` gave NPYLR7 ag -3 and NPYLR7 ag max-min -12.
Screening O=C(O)C1CSC(Cc2ccccc2)C(=O)N1 (configuration not stated) returned NPYLR7 ag 2 and NPYLR7 ag max-min 0.
COCCN1C[C@@H]2C[C@@H](C(N)=O)N(C(=O)c3ccco3)c3cccc(c32)C1=O was read as NPYLR7 ag 2 and NPYLR7 ag max-min 12.
C=C1c2ccccc2NC(=O)N1CC(c1cccs1)N1CCCC1 (configuration not stated) was read as NPYLR7 ag 3 and NPYLR7 ag max-min 0.
`COc1ccc(-c2csc(-n3[nH]c(C)c(N=Nc4ccc(Cl)cc4C(=O)c4ccccc4)c3=O)n2)cc1` gave NPYLR7 ag -5 and NPYLR7 ag max-min -10.
Screening Cc1cccc(NC(=O)Cn2cc(C(=O)C3CC3)c3ccccc32)c1C returned NPYLR7 ag -2 and NPYLR7 ag max-min -5.
`CCOC(=O)c1c(NC(C)=O)sc(Cl)c1-c1ccccc1` gave NPYLR7 ag 0 and NPYLR7 ag max-min -5.
OCCC1CN(Cc2cc3ccccc3[nH]2)CCN1CC1CCCCC1 (configuration not stated) was read as NPYLR7 ag 13 and NPYLR7 ag max-min 8.
`CC(C)c1nc(CNC(=O)c2ccc(N3CCOCC3)nc2)no1` gave NPYLR7 ag 8 and NPYLR7 ag max-min 4.
Fc1ccc(Cn2cccc2C2=NCCO2)cc1 was read as NPYLR7 ag 9 and NPYLR7 ag max-min 3.
Screening O=C1NC(=O)C(Nc2ccccc2)S1 (configuration not stated) returned NPYLR7 ag 0 and NPYLR7 ag max-min 4.
`O=C1Nc2ccccc2SC1SCCNS(=O)(=O)c1cc(Cl)sc1Cl` (configuration not stated) gave NPYLR7 ag -7 and NPYLR7 ag max-min -14.
For COc1ccccc1/C=N\OC(=O)c1cc(F)c(Cl)nc1Cl the results were NPYLR7 ag -2 and NPYLR7 ag max-min 1.
Screening COc1cc(OC)cc(C(=O)NCC2CCCN(C(=O)CC3=CCCCC3)C2)c1 (configuration not stated) returned NPYLR7 ag 19 and NPYLR7 ag max-min 10.
O=C1CCCN1c1ccc(OCc2cc(Cl)cc3c2OCOC3)cc1 was read as NPYLR7 ag -2 and NPYLR7 ag max-min -3.
`CC(C)C1CN(Cc2ccc3[nH]ccc3c2)CCCN1CC1CC1` (configuration not stated) gave NPYLR7 ag 12 and NPYLR7 ag max-min 3.
Screening O=C(c1nn(-c2cccc(C(F)(F)F)c2)c(=O)n(Cc2ccccc2F)c1=O)N1CCOCC1 returned NPYLR7 ag 16 and NPYLR7 ag max-min 12.
For COCCNC(=O)Cn1nc2c(c1NC(=O)c1ccccc1C)CSC2 the results were NPYLR7 ag -4 and NPYLR7 ag max-min 5.
Screening CC(C)c1ccc(C2SCCN2C(=O)C(Cl)Cl)cc1 (configuration not stated) returned NPYLR7 ag 20 and NPYLR7 ag max-min 17.
`CCC1(C2CCN(Cc3ccnn3-c3ccccc3)CC2)NC(=O)NC1=O` (configuration not stated) gave NPYLR7 ag 4 and NPYLR7 ag max-min 3.

Of the compounds above, these have a Cl atom.
Screening CCOC(=O)C1(Cc2cccc(Cl)c2)CCCN(C(=O)c2scnc2C)C1 (configuration not stated) returned NPYLR7 ag 8&-6 and NPYLR7 ag max-min 3&-10.
Screening CCCCn1ncc(O)c(Cl)c1=O returned NPYLR7 ag 1 and NPYLR7 ag max-min -1.
Screening Cc1c(Cl)c(C(=O)NCC(C)Oc2cccnc2)nn1C (configuration not stated) returned NPYLR7 ag 4 and NPYLR7 ag max-min 1.
Screening CCc1nn(-c2ccc(F)cc2)c(N2CCN(C(C)C)CC2)c1CN(CC(C)C)C(=O)CCl returned NPYLR7 ag 4 and NPYLR7 ag max-min 9.
Cc1nn2c(nc(NC3CCCCCC3)c3ccccc32)c1Cl was read as NPYLR7 ag 4 and NPYLR7 ag max-min 3.
Cc1cccc(Cl)c1OCCNC(=O)CSc1nnc(N)s1 was read as NPYLR7 ag 6 and NPYLR7 ag max-min 3.
For O=C(Nc1ccc(Cl)c(C(F)(F)F)c1)N1[C@H]2CCNC[C@@H]1CC2 the results were NPYLR7 ag 12 and NPYLR7 ag max-min 9.
`O=C(Nc1ccc(Oc2ccc(Cl)cc2)cc1)c1cc2cc([N+](=O)[O-])ccc2oc1=O` gave NPYLR7 ag -3 and NPYLR7 ag max-min -12.
`COc1ccc(-c2csc(-n3[nH]c(C)c(N=Nc4ccc(Cl)cc4C(=O)c4ccccc4)c3=O)n2)cc1` gave NPYLR7 ag -5 and NPYLR7 ag max-min -10.
`CCOC(=O)c1c(NC(C)=O)sc(Cl)c1-c1ccccc1` gave NPYLR7 ag 0 and NPYLR7 ag max-min -5.
`O=C1Nc2ccccc2SC1SCCNS(=O)(=O)c1cc(Cl)sc1Cl` (configuration not stated) gave NPYLR7 ag -7 and NPYLR7 ag max-min -14.
For COc1ccccc1/C=N\OC(=O)c1cc(F)c(Cl)nc1Cl the results were NPYLR7 ag -2 and NPYLR7 ag max-min 1.
O=C1CCCN1c1ccc(OCc2cc(Cl)cc3c2OCOC3)cc1 was read as NPYLR7 ag -2 and NPYLR7 ag max-min -3.
Screening CC(C)c1ccc(C2SCCN2C(=O)C(Cl)Cl)cc1 (configuration not stated) returned NPYLR7 ag 20 and NPYLR7 ag max-min 17.

Bioassay records (PubChem)
